# NS1 inh = qHTS Assay for Inhibitors of Influenza NS1 Protein Function | Potency, µM (highest dose often 46.1 µM), for the others: at the top dose activity, positive = more growth | AID 2326, 2010 | hit rate 0.4% among 270,000 | S. cerevisiae slowed by influenza A NS1, growth recovery by OD600; also: actives are rising curves; nearly all actives have a fitted effect of over 50% in size
#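 In this qHTS, NS1 from influenza A is expressed in budding yeast, where it slows growth. Cells are switched from glucose to 2% galactose medium (pH 6.0, -URA), treated with compound, and growth recovery is read at OD600.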
# 2A StopGo = High Throughput Screening for Foot and Mouth Disease Virus Antivirals. human cells with a luciferase reporter of 2A StopGo recoding; control for the full effect not named in the record. Potency, µM (series often up to 57.9 µM), for the others: at the top dose signal change, negative = less light. hit rate 1.2% among 410,000. AID 1159524, 2015; active = well fitted falling curve with a large enough effect; inconclusive = small, poorly fitted or top-dose-only effect; inactive = no such curve, though single readings can be large or run the other way; tested in HEK293T cells; also: % is scaled to controls: 0 for no effect and ±100 for the full control effect; nearly all actives have a fitted effect of over 45% in size; luciferase light after 4 h
# Lassa entry inh = qHTS for Inhibitors of binding or entry into cells for Lassa Virus | hit rate 1.2% among 300,000 | AID 540256, 2011 | Potency, µM (series often up to 37.9 µM), inactives show at the highest dose activity change, negative = inhibition, hits mostly inhibitors | Lassa virus pseudotype entry inhibition, cell reporter; control for the full effect not named in the record; active means well fitted inhibition curve with a large enough effect; inconclusive means small, poorly fitted or top-dose-only effect, or effect the other way; inactive means flat fitted curve, though single readings scatter; tested in HEK293 cells; also: % is scaled to controls: 0 for no effect and ±100 for the full control effect; nearly all actives have a fitted effect of over 50% in size; luciferase read-out
# SARS PLP yeast = qHTS of Yeast-based Assay for SARS-CoV PLP; S. cerevisiae expressing SARS-CoV PLpro, growth rescue; control for the full effect not named in the record; Potency, µM (top dose mostly 32.9 µM), without a hit: top-dose activity, positive = growth rescue; hit rate 0.19% among 330,000; also: 0% is about no effect; nearly all actives have a fitted effect of over 55% in size; growth read by luminescence after 48 h
# Active calls of the source: *; ? = inconclusive; . = not tested or not shown; [ ] = another dose, or the depositor's remark. Unless noted, calls follow the shape of the dose curve; as a rule, active means well fitted rising curve with a large enough effect; inconclusive means small, poorly fitted or top-dose-only effect; inactive means no such curve, though single readings can be large or run the other way. Potency is read from the fitted curve at half-maximal effect.
1. O=c1[nH]cc(-c2ccccc2)c(=O)[nH]1
2. Cc1c(C)n(Cc2ccccc2)c2ncnc(NCCN(C)C)c12
3. Cc1cc(NC(=O)Nc2cc(F)ccc2F)no1
4. CN1CCN(C(=O)/C=C/c2ccc([N+](=O)[O-])o2)CC1
5. O=C(NC1(N2CCOCC2)CC1)c1ccc(Cl)cc1
6. O=C(Nc1ccccc1F)Nc1cccc2ccc(O)cc12
entry no. | 1 | 2 | 3 | 4 | 5 | 6
NS1 inh | 2% | 1% | -41% | -3% | 3% | 4%
2A StopGo | -12% | -21% | 6% | -16% | -19% | 18%
Lassa entry inh | . | . | . | . | . | .
SARS PLP yeast | -1% | 5% | -3% | 2% | 2% | 0%

7. O=C1NC(=S)N/C1=C/c1cc2c(cc1[N+](=O)[O-])OCO2
8. Oc1ccc(N=Nc2ccccc2C(F)(F)F)c2cccnc12
9. O=C(O)C(c1ccccc1)N1C(=O)/C(=C\c2ccc(-c3ccc(Br)cc3)o2)SC1=S (stereo not drawn)
10. COc1ccc(C(=O)OC(C)C(=O)NC(C)CCc2ccccc2)cc1OC (stereo not drawn)
11. COc1ccc(CNc2nc(Cl)c(C#N)s2)cc1
12. Nc1nc(N2CCN(c3ccccn3)CC2)nc2ccccc12
entry no. | 7 | 8 | 9 | 10 | 11 | 12
NS1 inh | -4% | 1% | 5% | -5% | -2% | -4%
2A StopGo | -20% | -7% | -9% | -8% | 31%[activator] | 18%
Lassa entry inh | . | . | . | . | . | .
SARS PLP yeast | 1% | 2% | 0% | -1% | 10% | 0%

# Arranged by SMILES length (falling): 3 of the compounds above
9. O=C(O)C(c1ccccc1)N1C(=O)/C(=C\c2ccc(-c3ccc(Br)cc3)o2)SC1=S (stereo not drawn)
8. Oc1ccc(N=Nc2ccccc2C(F)(F)F)c2cccnc12
12. Nc1nc(N2CCN(c3ccccn3)CC2)nc2ccccc12
entry no. | 9 | 8 | 12
NS1 inh | 5% | 1% | -4%
2A StopGo | -9% | -7% | 18%
Lassa entry inh | . | . | .
SARS PLP yeast | 0% | 2% | 0%

# Further results
13. Cc1cc2nn(-c3ccc(Cl)cc3)nc2cc1N
14. CCc1nn2c(N3CCOCC3)cc(C)nc2c1-c1ccccc1
15. COc1cc([N+](=O)[O-])ccc1NC(=O)Oc1ccc(NC(C)=O)cc1
16. COc1ccc(NC2=CC(=S)NC(C)(C)C2)cc1
17. COC(=O)c1scc(C)c1NC(=O)c1ccccc1F
18. N#CC1CC(c2ccccc2)Nc2cc(Cl)ccc2N1 (stereo not drawn)
entry no. | 13 | 14 | 15 | 16 | 17 | 18
NS1 inh | 9% | -2% | -3% | -1% | -2% | -97%
2A StopGo | -21% | -17% | -10% | -1% | 14% | 62%[activator]
Lassa entry inh | . | . | . | . | . | .
SARS PLP yeast | 5% | 8% | -2% | -3% | -2% | -7%

19. O=C(O)c1ccccc1C(=O)Nc1cccc([N+](=O)[O-])c1
20. Cc1cccc2c(N)c3c(nc12)N(C)CC3
21. CCOc1cc(C2C(C(=O)OC)=CN(Cc3ccc(Cl)cc3)C=C2C(=O)OC)ccc1O
22. CC(=O)Nc1nc(C)c(CCC2OCCO2)c(=O)[nH]1
23. CCSc1nc(O)cc(=O)[nH]1
24. CC(C)(NC(=O)c1cc(Cl)c2ccccc2c1O)C(=O)O
entry no. | 19 | 20 | 21 | 22 | 23 | 24
NS1 inh | 1% | 1% | -6% | 3% | 6% | 3%
2A StopGo | -10% | -4% | ? | -4% | 39%[activator] | 3%
Lassa entry inh | . | . | . | . | . | .
SARS PLP yeast | 1% | 1% | -1% | -1% | 4% | -1%

25. COC(CSc1nc(N)c2c3c(sc2n1)CN(C)CC3)OC
26. Cc1ccc(N=C2C(=O)Nc3ccccc32)cc1
27. Cc1ccc(OCCOc2cccc(C=C3C(=O)NC(=O)NC3=O)c2)cc1
28. COc1ccc(C2CN=NC2C(=O)c2ccccc2)cc1 (stereo not drawn)
29. CN(C)c1cccc(/C=C(\C#N)c2ccccc2)c1
30. Cc1cc(/C=C2\C(=O)NC(=O)N(c3ccc(Br)cc3)C2=O)c(C)n1-c1cc(C(=O)O)cc(C(=O)O)c1
entry no. | 25 | 26 | 27 | 28 | 29 | 30
NS1 inh | 8% | 2% | -48% | -1% | -13% | 9%
2A StopGo | 39%[activator] | -10% | -65% | 39%[activator] | -2% | -3%
Lassa entry inh | . | . | . | . | . | .
SARS PLP yeast | 2% | 1% | 4% | -1% | -6% | 1%

31. Nc1ccc(Br)cc1Br
32. Nc1ccc(NC(=S)Nc2ccccc2)cc1
33. CN(C)/C=C/C(=O)c1ccc(OCCN(C)c2ccccn2)cc1
34. N/C(=N\[N+](=O)[O-])N1CCN(C(=O)Oc2ccccc2)CC1
35. Nc1n[nH]c(CO)n1
36. O=C(Nc1ccc(O)c(C(=O)O)c1)Oc1ccccc1
entry no. | 31 | 32 | 33 | 34 | 35 | 36
NS1 inh | 4% | -1% | -60% | 6% | 7% | 3%
2A StopGo | 65%[activator] | 2% | -5% | -9% | -7% | -10%
Lassa entry inh | . | . | . | . | . | .
SARS PLP yeast | -1% | 0% | -5% | 1% | 2% | -2%

37. COc1cc(/C=C2/C(=O)NN(c3ccc(Cl)cc3)C2=O)cc(OC)c1O
38. O=C(/C=C/c1ccccc1)NC(=S)Nc1ncccn1
39. CC(=O)C1=C(O)C(=O)N(c2ccc(Br)cc2)C1c1ccc([N+](=O)[O-])cc1 (stereo not drawn)
40. COc1cc2c(cc1OC)C(C1(O)CCCCC1)NCC2 (stereo not drawn)
41. O=C1CN2CCC1C/C2=C\c1ccnc2c(Cl)cccc12 (stereo not drawn)
42. Cc1cc2c(n1-c1ccc(C(=O)NCc3ccc(OC(C)C)cc3)cc1)CCCC2
entry no. | 37 | 38 | 39 | 40 | 41 | 42
NS1 inh | 2% | -3% | 1% | -1% | -5% | .
2A StopGo | ? | 10% | -23% | -19% | -27% | 14%
Lassa entry inh | . | . | . | . | . | ?
SARS PLP yeast | 1% | -1% | -1% | 2% | -1% | .

43. Cc1ccc(-c2cn3nc(N4CCCC(C(=O)NCc5ccccc5F)C4)sc3n2)cc1 (stereo not drawn)
44. O=C(Nc1cc(F)ccc1F)N1CCC(CN2CCCC2)CC1
45. CCN1CCc2c(sc(-n3cccc3)c2C(C)NC(=O)Nc2ccc(C(=O)OC)cc2)C1 (stereo not drawn)
46. Cc1ccc(CS(=O)(=O)c2cn(CC(=O)N(C)c3ccccc3)c3ccccc23)cc1
47. COC(=O)c1ccccc1NC(=O)C(Cc1ccccc1)N1Cc2ccccc2C1=O (stereo not drawn)
48. O=c1c(S(=O)(=O)c2ccccc2)cn(Cc2ccc(F)cc2)c2cc(N3CCOCC3)c(F)cc12
entry no. | 43 | 44 | 45 | 46 | 47 | 48
NS1 inh | . | . | . | . | . | .
2A StopGo | -7% | -10% | 0% | -16% | 35%[activator] | 46%[activator]
Lassa entry inh | ? | 1%[46.1 µM] | -13%[46.1 µM] | ? | -20%[46.1 µM] | 13%[46.1 µM]
SARS PLP yeast | . | . | . | . | . | .

49. CN(C)CCNC(=O)C1CCN(c2ncnc3c2nc2n3CCCCC2)CC1
50. CCc1cccc(NC(=O)Nc2cn(C)c(=O)c3ccccc23)c1
51. CC(=O)N1CCC2(CC1)OC(=O)C(C)=C2C(=O)Nc1cc(C)ccc1C
52. CCOC(=O)Cc1ccc(NC(=O)N2CCC(CN3CCC(C)CC3)CC2)cc1
53. CCCN1CCN(C(=O)Cn2c(-c3cccs3)cc3ccccc32)CC1
54. COc1cc(OC)c(NC(=O)C2=C(C)C(=O)OC23CCCCCC3)cc1Cl
entry no. | 49 | 50 | 51 | 52 | 53 | 54
NS1 inh | . | . | . | . | . | .
2A StopGo | 4% | 0% | 0% | -19% | -8% | -7%
Lassa entry inh | -11%[46.1 µM] | -13%[46.1 µM] | 27%[46.1 µM] | 23%[46.1 µM] | -2%[46.1 µM] | -16%[46.1 µM]
SARS PLP yeast | . | . | . | . | . | .

55. CN(C)c1ccc(CNC(=O)CCCN2C(=O)c3cccnc3Oc3ccc(Cl)cc32)cc1
56. Cc1cccc(NC(=O)c2ccc(CN3CC(=O)N4CCCCC4C3=O)cc2)c1C (stereo not drawn)
57. Cc1ccc(CNC(=O)COCc2cc(-c3ccc4c(c3)OCO4)on2)cc1
58. CC1=C(C(=O)N2CCN(c3cccc(Cl)c3)CC2)C2(CCCCC2)OC1=O
59. CC1Cc2cc(S(=O)(=O)NCc3ccccc3Cl)ccc2N1C(=O)C1CCC1 (stereo not drawn)
entry no. | 55 | 56 | 57 | 58 | 59
NS1 inh | . | . | . | . | .
2A StopGo | -9% | -10% | -16% | -29% | -14%
Lassa entry inh | -13%[46.1 µM] | 8%[46.1 µM] | ? | 2%[46.1 µM] | ?
SARS PLP yeast | . | . | . | . | .

# Entries listed so far that contain a Cl atom, in the order listed:
5. O=C(NC1(N2CCOCC2)CC1)c1ccc(Cl)cc1
11. COc1ccc(CNc2nc(Cl)c(C#N)s2)cc1
13. Cc1cc2nn(-c3ccc(Cl)cc3)nc2cc1N
18. N#CC1CC(c2ccccc2)Nc2cc(Cl)ccc2N1 (stereo not drawn)
21. CCOc1cc(C2C(C(=O)OC)=CN(Cc3ccc(Cl)cc3)C=C2C(=O)OC)ccc1O
24. CC(C)(NC(=O)c1cc(Cl)c2ccccc2c1O)C(=O)O
37. COc1cc(/C=C2/C(=O)NN(c3ccc(Cl)cc3)C2=O)cc(OC)c1O
41. O=C1CN2CCC1C/C2=C\c1ccnc2c(Cl)cccc12 (stereo not drawn)
entry no. | 5 | 11 | 13 | 18 | 21 | 24 | 37 | 41
NS1 inh | 3% | -2% | 9% | -97% | -6% | 3% | 2% | -5%
2A StopGo | -19% | 31%[activator] | -21% | 62%[activator] | ? | 3% | ? | -27%
Lassa entry inh | . | . | . | . | . | . | . | .
SARS PLP yeast | 2% | 10% | 5% | -7% | -1% | -1% | 1% | -1%

54. COc1cc(OC)c(NC(=O)C2=C(C)C(=O)OC23CCCCCC3)cc1Cl
55. CN(C)c1ccc(CNC(=O)CCCN2C(=O)c3cccnc3Oc3ccc(Cl)cc32)cc1
58. CC1=C(C(=O)N2CCN(c3cccc(Cl)c3)CC2)C2(CCCCC2)OC1=O
59. CC1Cc2cc(S(=O)(=O)NCc3ccccc3Cl)ccc2N1C(=O)C1CCC1 (stereo not drawn)
entry no. | 54 | 55 | 58 | 59
NS1 inh | . | . | . | .
2A StopGo | -7% | -9% | -29% | -14%
Lassa entry inh | -16%[46.1 µM] | -13%[46.1 µM] | 2%[46.1 µM] | ?
SARS PLP yeast | . | . | . | .

# Only part of the results is shown; the hit share may differ from the screen's.
